LANA-H2B inh – blockers of LANA interaction with H2A/H2B – biochemical, FP readout, HTS, primary screen; Protein LANA1 (Human herpesvirus 8 type P (isolate GK18)), Q9QR71; cell-free LANA-H2A/H2B peptide, fluorescence polarization; inhibition, % (concentration not given with the values); actives 0.6% (n = 320,000); AID 2629, 2010; in the data active = inhibition mostly above about 10%, no sharp cut-off; inactive = mostly below about 6.7%;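 note: stock transfer was 7.5 nL into about 10 µL; 0% = median of vehicle wells and 100% = median of positive control wells; one replicate is shown; the record names a cut of 25% in any replicate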
Ecoli growth – E. coli growth inhibition, primary screen, OD600; Escherichia coli growth, 23 h; active compounds read low; OD600 absorbance (no concentration beside the values); actives 0.21% (n = 330,000); AID 1053175, 2014;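 active = OD600 absorbance below the run mean of sample wells minus 3.6 SD, in any replicate, cut at about 0.56 in these data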;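 note: stock transfer was 300 nL into about 60 µL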
HNF4A DNA FP – change in binding of human HNF4A to DNA, primary screen, biochemical, fluorescence polarization, FITC-DNA; actives 0.3% (n = 360,000); 1 h; activity change, % at 10 µM; Hepatocyte nuclear factor 4-alpha (Homo sapiens), P41235; in the data active = activity change above about 30%, passing the limit was not always enough;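 note: controls were the assay level and a saturating level of protein; the project sought stronger binding though the title names inhibitors; some compounds called inactive have numbers as strong as hits; positive values seem to mean higher polarization but the record does not say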
Target sequence (P41235 whole entry, looked up): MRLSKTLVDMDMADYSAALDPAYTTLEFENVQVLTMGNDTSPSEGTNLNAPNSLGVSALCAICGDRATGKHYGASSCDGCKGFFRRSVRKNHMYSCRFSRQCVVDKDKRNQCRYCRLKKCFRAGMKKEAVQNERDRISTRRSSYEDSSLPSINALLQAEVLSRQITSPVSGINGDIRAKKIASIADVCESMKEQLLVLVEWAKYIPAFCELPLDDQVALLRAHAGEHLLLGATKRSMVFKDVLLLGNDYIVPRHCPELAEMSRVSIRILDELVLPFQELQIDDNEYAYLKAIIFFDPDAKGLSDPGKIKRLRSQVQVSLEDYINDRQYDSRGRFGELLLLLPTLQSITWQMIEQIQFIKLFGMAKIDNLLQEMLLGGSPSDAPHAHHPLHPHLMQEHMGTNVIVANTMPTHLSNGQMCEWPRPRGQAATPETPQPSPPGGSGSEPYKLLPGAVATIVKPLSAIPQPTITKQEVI
FGF22 binding – binders of human FGF22 protein, primary screen, FGF22 synaptogenesis inhibitor project, biophysical, thermal shift, single point; Fibroblast growth factor 22 (Homo sapiens), Q9HCT0; recombinant FGF22 thermal shift, SYPRO orange fluorescence; percent of sucrose octasulfate shift, DMSO zero; calls only at 9.99 µM; actives 1.5% (n = 340,000); AID 651658, 2012;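 active = melting point raised past a set limit in the mean and every replicate; three in four hits are not shown here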
B2AR ag – beta2AR agonists driving receptor internalization, primary screen, cell-based, FAP fluorogen, flow cytometry; Am2.2-beta2AR cells; reference of the scale not given here; response, % (concentration not given with the values); actives 0.43% (n = 340,000); AID 504454, 2011;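 active = response above a set limit, near 3 SD of response in nonfluorescent compounds, cut at about 42% in these data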;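 note: stock transfer was 100 nL into about 11 µL; a reference agonist was the positive control; negative values mostly stem from fluorescent compounds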
ALR inh – inhibitors of human ALR sulfhydryl oxidase, primary screen, biochemical, H2O2 detection, HRP-luminol luminescence, single point; purified ALR, DTT oxidation; FAD-linked sulfhydryl oxidase ALR (Homo sapiens), P55789; inhibition, % (test concentration not listed); actives 3.8% (n = 290,000);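 active = mean and each replicate at 75% or more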;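 note: stock transfer was 7.5 nL into about 7.5 µL; 0% = neutral wells and 100% = wells with inactivated enzyme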
Target sequence (P55789 whole entry, looked up): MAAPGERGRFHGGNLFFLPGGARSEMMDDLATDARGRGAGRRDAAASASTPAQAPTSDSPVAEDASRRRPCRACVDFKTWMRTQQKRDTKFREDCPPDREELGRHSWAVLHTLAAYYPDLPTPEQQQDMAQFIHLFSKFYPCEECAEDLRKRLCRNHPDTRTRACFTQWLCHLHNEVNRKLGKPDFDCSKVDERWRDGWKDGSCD
UCH37 inh – inhibitors of human UCH37 deubiquitinase, primary screen, biochemical, Ub-AMC cleavage, fluorescence; actives 0.33% (n = 330,000); Ubiquitin carboxyl-terminal hydrolase isozyme L5 (Homo sapiens), Q9Y5K5; AID 588478, 2011; inhibition, % (no concentration beside the values); purified proteasome/UCH37;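 active = mean of two replicates above 20%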;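 note: 0% = compound-free wells with enzyme and 100% = wells lacking proteasome; stock transfer was 100 nL into about 20 µL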
Target sequence (Q9Y5K5 whole entry, looked up): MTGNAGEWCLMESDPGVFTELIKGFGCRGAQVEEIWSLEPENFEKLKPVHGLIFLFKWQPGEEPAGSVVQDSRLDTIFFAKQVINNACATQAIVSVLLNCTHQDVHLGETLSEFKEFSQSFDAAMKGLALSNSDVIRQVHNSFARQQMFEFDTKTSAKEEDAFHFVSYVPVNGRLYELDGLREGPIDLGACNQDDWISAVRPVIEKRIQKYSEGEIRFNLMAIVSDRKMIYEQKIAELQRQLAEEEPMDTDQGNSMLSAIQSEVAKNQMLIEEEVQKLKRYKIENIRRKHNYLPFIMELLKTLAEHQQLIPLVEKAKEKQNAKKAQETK
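Reagent: Ub-AMC substrate; assay system: Proteasome-associated human UCH37 deubiquitinase; controls: no-proteasome and no-compound wells; read-out: % inhibition of Ub-AMC cleavage fluorescence; timing: 30 min preincubation with enzyme, 25 min cleavage at room temperature; signal: AMC fluorescence from Ub-AMC cleavage, excitation 355 nm, emission 460 nm; buffer or medium: Tris-HCl pH 7.4 plus ovalbumin, ATP-MgCl2, DTT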
* marks the source's active call; other numbers are inactive results; i = inactive; / = not tested or not shown.

The line under a structure holds: LANA-H2B inh	Ecoli growth	HNF4A DNA FP	FGF22 binding	B2AR ag	ALR inh	UCH37 inh
S=c1nc(-c2cc(Cl)ccc2Cl)[nH][nH]1
 : 0.6	/	-4.3	/	1.7	-77.3	1.7
c1ccc2c(NC3CCCC3)nnc(NC3CCCC3)c2c1
 : 2.2	0.741	2.2	/	-0.8	98.4*	-18.9
COc1ccc(-c2cc(C#N)nc(N3CCN(c4ccccc4)CC3)n2)cc1
 : 3.7	0.712	3.6	/	-14.3	-4.7	-0.2
CC(=O)c1ccc(N(C(=O)CNC(=O)c2ccco2)C(C(=O)NC2CCCC2)c2ccc(C)o2)cc1 (stereo unspecified)
 : -0.3	0.659	-0.5	i	-7.5	-3.2	3.2
Cc1ccc(C(=O)CSc2nc3c([nH]2)c(=O)n(C)c(=O)n3C)cc1
 : 5.9	0.71	-0.7	i	-6.7	12.6	-1.9
Cc1ccc(S(=O)(=O)N2CCOCC2)cc1NC(=O)CNCc1cccnc1
 : -2.6	0.653	-0.6	i	1.8	-4.7	1.5
O=S1(=O)C=C(SCc2ccc(F)cc2)Nc2ccccc21
 : -3.6	0.666	0.4	i	2.8	/	5.2
O=C(Cn1nc(CNc2ccc(Cl)cc2)[n+]2c1CCCCC2)c1ccc(Br)cc1
 : /	0.58	3.3	/	-5.6	/	3.0
COc1cccc(-c2noc(CCC(=O)NCC3CCCO3)n2)c1 (stereo unspecified)
 : 3.7	0.679	3.1	i	0.6	4.7	3.6
CCCCCn1c(N(C)Cc2ccccc2)nc2c1c(=O)[nH]c(=O)n2C
 : 1.0	0.738	-1.8	i	-16.8	/	5.3
O=C(Oc1ccc(-c2nnco2)cc1)C1CCN(C(=O)c2ccc(F)cc2)CC1
 : -10.3	0.723	3.8	i	-1.0	1.2	1.7
COc1ccc(C2=NN(S(C)(=O)=O)C(c3cccs3)C2)cc1 (stereo unspecified)
 : 2.6	0.66	-1.4	i	10.2	-7.8	1.9
Cc1occc1-c1nnc(SCC(=O)Nc2ccccn2)o1
 : 1.3	0.633	2.6	i	-6.0	24.0	-1.3
C/C(=N\NC(=O)c1ccc(F)cc1)c1ccc(NC(=O)Cc2ccccc2)cc1
 : 2.7	/	-2.7	i	-5.5	0.0	/
CC1=NN(C(N)=S)C(=O)C1N=Nc1ccccc1C(=O)O (stereo unspecified)
 : 3.4	0.666	-2.3	i	0.5	-0.5	5.6
CCCCCC(C(=O)O)C(C)CC(=O)NC1CCCCC1 (stereo unspecified)
 : 2.6	0.785	1.3	/	3.1	-2.5	2.1
Cc1occc1C(=O)NN=C1C2CC3CC(C2)CC1C3
 : -6.4	0.68	1.3	/	4.0	19.4	0.6
COc1ccc2cc(C(=O)C3CCCN(C(=O)c4cncs4)C3)ccc2c1 (stereo unspecified)
 : -5.6	0.673	0.5	i	0.0	-21.3	i
O=C(COc1ccc(Br)cc1CO)Nc1ccccc1
 : -5.7	0.716	-1.2	/	0.6	1.9	2.8
Cn1c(/C=N/n2cnnc2)nc2ccccc21
 : -1.7	/	-0.4	i	-8.0	-4.4	/

Later entries:
The line under a structure holds: LANA-H2B inh	Ecoli growth	HNF4A DNA FP	FGF22 binding	B2AR ag	ALR inh	UCH37 inh
CCOC(=O)c1cc(NC(=O)COc2ccc([N+](=O)[O-])cc2)cc(C(=O)OCC)c1
 : -3.1	/	1.9	/	-1.7	-1.8	/
CC(NC(=O)COc1ccc(-c2ccccc2)cc1)C1CCCO1 (stereo unspecified)
 : -5.0	0.705	1.9	i	12.8	-4.7	5.5
CCOc1ccc(S(=O)(=O)N2CCCC(C(=O)NCC3CCCO3)C2)cc1 (stereo unspecified)
 : 2.1	0.721	-0.1	i	-2.2	-4.7	5.9
CNC(=S)NCCc1cc2c(OC)ccc(OC)c2[nH]c1=O
 : 2.5	0.679	-8.4	i	-5.2	-19.3	-3.9
CCCC(C(=O)Nc1cccc(S(=O)(=O)N2CCCC2)c1)c1ccccc1 (stereo unspecified)
 : 2.5	0.63	0.6	i	-3.1	-8.4	-0.8
O=C(CNCC1CCCO1)N1CCCc2ccccc21 (stereo unspecified)
 : 3.2	0.71	1.2	i	5.7	-2.3	-41.5
COc1ccc(S(=O)(=O)N2CCCCC2)cc1NC(=O)CNc1ccccc1N1CCCC1=O
 : 0.8	0.667	9.1	i	4.4	/	3.9
CCN(/N=C/C=C/c1ccccc1)c1cc(=O)n(C)c(=O)[nH]1
 : 4.8	/	0.9	i	-1.8	-30.6	/
CCn1c(-c2cc(-c3cc(OC)ccc3OC)nc3ccccc23)n[nH]c1=S
 : -3.9	0.669	0.8	i	6.6	-7.4	-7.7
COc1ccc(C)cc1S(=O)(=O)N1CCCC(C(=O)N2CCOCC2)C1 (stereo unspecified)
 : -3.6	0.713	-3.7	/	-2.6	-1.8	1.0
C/C(N)=C(/C#N)C(=O)COC(=O)c1ccc(OCC2CCCO2)cc1 (stereo unspecified)
 : -0.7	0.673	-0.9	i	-1.8	/	0.9
NC(=O)c1cc([N+](=O)[O-])ccc1NCc1ccc(C(=O)O)cc1
 : 0.7	0.71	-1.6	i	-21.6	-15.9	4.2
Cc1cccc(OCC(=O)Nc2cc(S(=O)(=O)N3CCOCC3)ccc2N2CCCC2)c1C
 : 8.0	0.607	-0.7	i	-9.4	-2.1	1.9
COc1ccccc1-c1oc2ccccc2c1-c1ccc2cc[nH]c2c1
 : -8.8	0.669	0.8	i	-4.3	-6.7	-16.8
CC(OC(=O)c1nsc(Cl)c1Cl)C(=O)NC(C)(C)C (stereo unspecified)
 : 3.2	0.681	0.0	/	-2.1	-2.7	3.2
COc1c(O)ccc2c1CN1CCc3cc4c(cc3C1C2)OCO4 (stereo unspecified)
 : -12.0	0.728	4.2	/	18.9	11.1	-19.3
NS(=O)(=O)c1ccc(CCNS(=O)(=O)c2ccc(Cl)cc2)cc1
 : -0.9	0.697	2.7	i	-3.4	/	2.9
CC1CCCCC1NC(=O)c1ccncc1 (stereo unspecified)
 : -3.0	0.643	1.9	i	6.4	-1.9	0.1
Cc1c(N=c2scc(-c3ccccc3)n2C)c(=O)n(-c2ccccc2)n1C
 : -2.8	0.718	-1.6	i	-1.8	69.4	-1.9
CC(C)(C)NC(=O)CN(C(=O)c1csnn1)c1cccc2c1CCCC2
 : 0.3	0.662	2.8	i	-9.7	1.3	2.6

Next entries:
The line under a structure holds: LANA-H2B inh	Ecoli growth	HNF4A DNA FP	FGF22 binding	B2AR ag	ALR inh	UCH37 inh
O=C(Sc1ccc(Cl)cc1)c1cccc(Cn2cc(C(F)(F)F)ccc2=O)c1
 : 2.2	0.615	-4.1	i	4.5	-8.9	7.1
NC(=O)C1(c2ccccc2)OC1c1ccccc1 (stereo unspecified)
 : 1.4	/	-1.6	i	-4.2	0.3	3.5
Cc1cc(NC(=O)Cn2nnc(-c3ccccc3NC(=O)c3ccccc3F)n2)no1
 : 4.8	0.656	-2.2	i	-2.5	/	-2.9
Cc1nn2c(N)c(-c3ccccc3)cnc2c1-c1ccccc1
 : 0.3	0.652	-3.5	i	0.5	/	-150.3
CN(C)C(CNC(=O)c1cc(S(=O)(=O)N(C)c2ccc(F)cc2)ccc1Cl)c1ccco1 (stereo unspecified)
 : 1.2	0.675	-0.7	/	8.4	-5.3	-2.4
CNC(=O)C1(C)C=CCN1C(=O)c1ccccc1 (stereo unspecified)
 : -5.5	0.65	-4.3	i	-7.2	-6.1	-0.2
CC(OC(=O)c1ccc(S(=O)(=O)N2CCCCC2)cc1)C(=O)NC1CCCCC1C (stereo unspecified)
 : -3.9	0.725	-0.6	i	3.8	1.6	4.4
CCN1C(=O)/C(=C\N2CCOCC2)SC1=S
 : -3.5	0.658	2.5	/	-0.8	-2.8	1.7
Clc1ccccc1-c1nn2c(-c3ccncc3)nnc2s1
 : -0.8	0.71	-3.5	/	-2.3	/	-0.4
Cc1ccc(-n2c(C)nn(CC#N)c2=O)cc1
 : 3.8	0.71	2.2	i	-0.1	2.5	6.3
NC(N)=NCCCC(NC(=O)c1ccccc1)C(=O)Nc1ccc([N+](=O)[O-])cc1 (stereo unspecified)
 : 3.3	0.688	2.0	i	-7.2	-0.8	3.4
CCC(C)(C(=O)NC1CCCCC1)N(Cc1ccco1)C(=O)c1ccccn1 (stereo unspecified)
 : 3.9	0.688	-1.4	/	7.8	/	4.8
O=C(c1ccc(OC(F)(F)F)cc1)c1ncc[nH]1
 : -1.6	0.663	1.3	/	9.1	-1.4	6.0
CC(C)c1c(C#N)c(N)nc(SCC(=O)c2cc3ccccc3oc2=O)c1C#N
 : 4.2	0.755	-2.2	/	-11.8	-9.7	0.9
Cc1ccc(S(=O)OCC(=O)Nc2cc(Cl)ccc2N2CCOCC2)cc1 (stereo unspecified)
 : -5.8	0.699	1.8	/	-1.3	-18.0	1.8
O=C(O)Cn1c2c(c3ccccc31)CCCC2
 : 3.6	/	0.1	/	-0.2	-29.4	/
Cc1cc(C)cc(NC(=O)COc2coc(CN3CCc4ccccc4C3)cc2=O)c1
 : 0.9	0.718	0.5	i	4.7	-0.1	1.8
Cc1ccc(S(=O)(=O)N2CCCC2C(=O)N(C)Cc2cccs2)cc1 (stereo unspecified)
 : -0.3	0.683	-1.6	/	-5.0	-9.1	2.1
CC(C)C(=O)OCC(=O)NCc1ccccc1Cl
 : 0.3	0.717	3.0	i	3.9	-17.8	1.2
C=CC(C)(C)c1c(O)c(CC=C(C)C)c(O)c2c(=O)c3ccc(O)c(O)c3oc12
 : 0.4	0.709	-3.4	/	32.6	12.3	2.6

Continued.
The line under a structure holds: LANA-H2B inh	Ecoli growth	HNF4A DNA FP	FGF22 binding	B2AR ag	ALR inh	UCH37 inh
Cc1ccc(S(=O)(=O)NCCNC(=O)c2cc(OCC(F)(F)F)ccc2OCC(F)(F)F)cc1
 : 0.6	0.718	2.1	/	-7.5	-7.8	4.7
COc1cccc(S(=O)(=O)NCc2ccc(C(=O)NCC3CCCO3)cc2)c1 (stereo unspecified)
 : -3.8	0.719	3.2	/	5.4	-2.4	5.6
CCCCN1CC(COCc2ccccc2)Oc2cccc(Oc3ccccc3)c2S1(=O)=O (stereo unspecified)
 : /	/	-1.5	i	1.4	/	/
O=C1/C(=C/c2ccc(O)c(O)c2)Oc2cc(O)ccc21
 : -2.9	0.685	19.5	i	-75.3	98.4*	3.5
Cc1ccc(C(=O)NNC(=O)C(C)Sc2nc(N)cc(N)n2)cc1 (stereo unspecified)
 : 5.2	0.672	0.6	/	14.9	-2.1	1.4
C=CCn1nnnc1SCC(=O)Nc1ccc(C(=O)OC)cc1
 : -6.3	0.696	4.3	i	-1.8	8.1	-0.2

Screening results: PubChem BioAssay, several laboratories

This is a subset, so the mix of outcomes need not match the whole.
